Screens from PubChem.
RecA intein inh: blocks M. tuberculosis RecA intein splicing | cell-free RecA intein splicing, fluorescence | inhibition, %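 (about 9 µM by stock and volumes)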 | hit rate 0.75% among 290,000 | AID 2221; in the data active = inhibition above about 30%;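 also: 0% = vehicle wells and 100% = reference inhibitor control wells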
Target sequence (P9WHJ3 whole entry, looked up): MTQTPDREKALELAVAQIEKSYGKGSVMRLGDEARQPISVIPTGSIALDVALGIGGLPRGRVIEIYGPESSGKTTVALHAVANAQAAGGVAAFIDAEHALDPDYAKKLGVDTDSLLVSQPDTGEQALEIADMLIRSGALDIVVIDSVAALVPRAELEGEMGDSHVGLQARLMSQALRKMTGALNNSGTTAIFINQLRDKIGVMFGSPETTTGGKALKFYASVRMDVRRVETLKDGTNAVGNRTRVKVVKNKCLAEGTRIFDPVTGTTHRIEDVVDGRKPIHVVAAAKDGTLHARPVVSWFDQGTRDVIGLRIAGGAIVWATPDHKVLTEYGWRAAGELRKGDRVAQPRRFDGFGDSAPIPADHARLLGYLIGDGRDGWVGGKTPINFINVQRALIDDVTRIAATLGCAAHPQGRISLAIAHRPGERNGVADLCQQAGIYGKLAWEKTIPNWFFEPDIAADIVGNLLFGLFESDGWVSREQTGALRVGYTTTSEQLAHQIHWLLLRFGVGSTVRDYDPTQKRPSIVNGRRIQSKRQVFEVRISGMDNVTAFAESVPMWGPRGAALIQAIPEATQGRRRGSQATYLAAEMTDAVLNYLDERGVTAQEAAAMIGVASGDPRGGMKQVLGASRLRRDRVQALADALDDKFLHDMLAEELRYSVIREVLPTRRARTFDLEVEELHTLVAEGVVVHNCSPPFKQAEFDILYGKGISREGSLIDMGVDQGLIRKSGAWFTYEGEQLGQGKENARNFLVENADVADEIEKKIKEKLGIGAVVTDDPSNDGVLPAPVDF
Arbovirus anti: antivirals against arbovirus infection | inhibition, % at 10 µM | AID 1251 | arbovirus infection cell-based antiviral screen | hit rate 0.37% among 200,000;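 active = inhibition from about 30%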;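 also: bluetongue infection of BSR cells; cell survival read as ATP light after 72 h; 0% = infected wells without compound and 100% = uninfected wells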
Mtb betalactam: beta-lactam sensitization of Mtb H37Rv; inhibition, % at 25 µM; hit rate 0.27% among 330,000; M. tuberculosis H37Rv growth with meropenem, percent inhibition; hits of this screen are not shown here;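 active = about 74% or more and at least 40 points above the plate without the antibiotic, then above 30% in a dose series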;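 also: growth measured after seven days incubation then overnight dye step; 0% = bacteria only wells and 100% = bacteria with antibiotic; twin plates without the antibiotic show which effects depend on it; some results filed as inactive read as strong as hits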
Mtb H37Rv: M. tuberculosis H37Rv growth inhibitors, H37Rv strain (AID 1626). M. tuberculosis H37Rv growth inhibition; higher % means a stronger effect. hit rate 0.95% among 220,000. one-dose inhibition, % at 10 µM; IC50 in µM for titrated hits;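 active = confirmed in a dose series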;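 also: bacteria incubated seven days before Alamar blue readout; 0% = bacteria only wells and 100% = bacteria with antibiotic wells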
YopH PTP inh: YopH (Yersinia) phosphatase inhibition. fluorescence Ex485/Em525. inhibition, %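 (about 10 µM by stock and volumes)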. hit rate 0.16% among 140,000;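 active = inhibition of 50% or more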;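 also: controls were vehicle for no effect and minimum signal wells for full effect; inactives centre near -20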
Arbovirus anti repeat: recorded beside Arbovirus anti, whose call it bears; inhibition, %; measured here: 10K subset replicate screen; many hits read low in the repeat;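 first of two repeat runs on a subset; 0% = infected and 100% = uninfected wells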
* marks the source's active call; other numbers are inactive results; i = inactive; / = no result given. These rows are one share of the data, so the mix of outcomes need not match the whole.

Start of the data: the first 2 records (preview)
SMILES | RecA intein inh | Arbovirus anti | Mtb betalactam | Mtb H37Rv | YopH PTP inh | others
COc1cc2c(=O)n(-c3ccc(C)cc3)c(=O)n(CC(=O)c3ccc4c(c3)OCO4)c2cc1OC | -0.8 | 20 | -11 | 1% | -6
CCS(=O)(=O)CCSc1nc2ccccc2o1 | -1.2 | -2 | -2 | 3% | -13

Results (from the top)
SMILES | RecA intein inh | Arbovirus anti | Mtb betalactam | Mtb H37Rv | YopH PTP inh | others
COc1cc2c(=O)n(-c3ccc(C)cc3)c(=O)n(CC(=O)c3ccc4c(c3)OCO4)c2cc1OC | -0.8 | 20 | -11 | 1% | -6
CCS(=O)(=O)CCSc1nc2ccccc2o1 | -1.2 | -2 | -2 | 3% | -13
O=C1NC2(CCCCCC2)N=C1c1ccc(F)cc1 | -2.9 | 4 | 9 | -3% | -32
Nc1nonc1C(=O)NCCNCc1c(OCc2ccccc2F)ccc2ccccc12 | 5.4 | -17 | 85 | 74% | -7
O=C(Oc1ccc2ccccc2c1)c1ccco1 | 35* | 11 | 95 | 53% | -26
O=C(Nc1nc(-c2ccncc2)cs1)c1ccco1 | 2.8 | 10 | 6 | 10% | -49
Cc1cc(C(=O)COc2cccnc2[N+](=O)[O-])c(C)n1Cc1cccs1 | -0.2 | -9 | 2 | -9% | /
CCOc1ccc(C(=O)Nc2cc(C)on2)cc1 | -0.1 | -1 | -3 | -5% | -49
O=C(Nc1cccnc1)c1ccc([N+](=O)[O-])o1 | -8.4 | / | 38 | / | /
COc1ccc(C(=O)N2CCC3(CC2)NCCc2[nH]cnc23)cc1OC | -1.1 | / | -5 | / | /
CC(=O)N1N=C(c2ccco2)CC1c1ccco1 (centres undefined) | 2.2 | / | -2 | / | /
CC(=O)c1cc2c(cc1N(C(=O)c1ccco1)C(C(=O)NC1CCCC1)c1ccccc1F)OCO2 (centres undefined) | 0.7 | / | -6 | / | /
CN(C1CCCCC1)S(=O)(=O)c1ccc2c(c1)c(=O)c(C(=O)NCCN1CCCC1)cn2C | -1.9 | 0 | -1 | -9% | /
Cc1c(C(=O)N2CCc3ccccc3C2)oc2ccccc12 | 9.2 | / | -5 | / | /
CCOc1ccc(-n2c(SCc3ccc([N+](=O)[O-])cc3)nnc2-c2ccccc2)cc1 | 2.1 | 2 | 6 | 4% | -6
Cc1cccc(NC(=S)N(CCN(C)C)Cc2cc3cc(C)cc(C)c3[nH]c2=O)c1 | 2.3 | 18 | 3 | 9% | -24
CN(CC1CCCN(CCc2ccc(Cl)cc2)C1)C(=O)c1ccco1 (centres undefined) | -0.7 | / | -1 | / | /
Cc1ccc(S(=O)(=O)CNC(=S)c2ccc3ccccc3c2)cc1 | 12 | -2 | 89 | 72% | -69
CC(C)=NOc1nc(N(C)C)nc(N(C)C)n1 | 2.3 | 6 | 9 | 2% | -22
COC(=O)c1ccc(Cn2cc(C(F)(F)F)ccc2=O)cc1 | -2.5 | -14 | -4 | 3% | /
N=c1sc2ccccc2n1-c1ccccc1 | -1.6 | 6 | -2 | -12% | 5
CCc1ccccc1NC(=O)CNC1CCCCC1 | 6.0 | -6 | -10 | 1% | /
COc1ccc(-c2nnc(SCc3cccc(C)c3)n2N)cc1 | 4.1 | 1 | 2 | -4% | -13
CN(C)c1ccc(NC(=S)N2CCN(c3ncc(C(F)(F)F)cc3Cl)CC2)cc1 | -2.3 | / | -2 | 0% | /
COc1cccc(/C=N/NC(=O)C[n+]2ccccc2)c1OC | 0.5 | 0 | 9 | -9% | -9
CCOC(=O)c1c(C)oc2cc(Sc3ccccc3)c(O)c(O)c12 | -2.3 | / | 2 | / | /
O=C(O)CS(=O)CC(=O)Nc1cccc(C(F)(F)F)c1 (centres undefined) | 0.9 | 3 | -3 | -2% | /
Cc1ccccc1C(=O)N(C)c1ccccc1C(=O)NCc1ccccc1 | -0.9 | / | -20 | / | /
COc1nc(C)ccc1-c1noc(-c2ccncc2)n1 | 0.8 | 0 | 5 | 5% | 11
CC1=NN(c2ccc(C)c(C)c2)C(=O)C1C(c1cccc(O)c1)C1C(=O)N(c2ccc(C)c(C)c2)N=C1C (centres undefined) | 95* | 4 | 10 | -8% | -118
O=C(COC(=O)/C=C/c1ccccc1[N+](=O)[O-])Nc1ccc(OCc2ccccc2)cc1 | -1.8 | -9 | -2 | -9% | -22
O=C(CN1CCc2ccccc2C1)Nc1ccccc1N1CCCCCC1 | 5.7 | -37 | 5 | 16% | 2
CCc1ccc(NC(=O)CN(CC(=O)Nc2ccc(CC)cc2)CC(C)O)cc1 (centres undefined) | -8.2 | / | 85 | / | /
CCN(CC)S(=O)(=O)c1ccc(C)c(NC(=O)COC(=O)CNC(=O)c2ccc(C(C)(C)C)cc2)c1 | 1.4 | 12 | 3 | -5% | -25
Cc1nn(CCC#N)c(NC(=O)c2ccccc2)c1P(=O)(Nc1ccc(Br)cc1)N1CCOCC1 (centres undefined) | 1.7 | 3 | 1 | -3% | /
Cc1ccc(C(=O)CSc2cc(C)nc(SCC(=O)c3ccccc3)n2)cc1 | -2.0 | -12 | 2 | 0% | -9
S=C(Nc1ccc(Cl)cc1)NC1CC2CCC(C1)N2Cc1ccccc1 (centres undefined) | 3.5 | -24 | 93 | 9% | /
Cc1ccc(C)c(NC(=O)CSc2nnc(C3CCCCC3)o2)c1 | 1.0 | / | 1 | / | /
COCCSc1nnc(NC(=O)c2ccc(NC(=O)C(C)C)cc2)s1 | -3.6 | 3 | -2 | 11% | /
O=C(Nc1ccccc1F)c1ccc(CN2CCc3ccccc3C2)cc1 | -0.6 | / | 4 | / | /
COC(=O)c1ccc(NC(=S)N2CCCC2)cc1 | / | 4 | -1 | 3% | /
Cc1ccc(NC(=O)N2N=C(c3ccc(F)cc3)CC2c2ccc(F)cc2)cc1 (centres undefined) | 1.1 | 15 | -4 | -4% | -44
C=CCOc1ccc(/C=N/NC(=O)C(C)Sc2ccccn2)cc1OCC (centres undefined) | 0.2 | -9 | 8 | 0% | -28
COc1ccc(N=Nc2cc(C)ccc2O)cc1 | 3.6 | / | 26 | 0% | /
COC(=O)/C(C#N)=C/c1ccc(OC(=O)c2ccccn2)cc1 | -6.2 | 1 | 15 | -3% | -38
O=C(NCC1CCCC(CNC(=O)N2CCc3ccccc32)C1)N1CCc2ccccc21 (centres undefined) | 2.4 | -17 | 19 | 12% | -17
CC(C)NC(=S)NN=C1CCC(c2ccccc2)CC1 (centres undefined) | -0.8 | 0 | 99 | -1% | /
O=C(NCc1cccs1)C1CCCN1C(=O)Nc1ccccc1[N+](=O)[O-] (centres undefined) | -4.1 | / | -2 | / | /
CCCCCCc1cc2cc(C(=O)OCC)c(=O)oc2cc1O | i | / | -1 | 8% | /
C#CCSc1nnc(-c2c[nH]c3ccccc23)n1C | 0.1 | 1 | -5 | -8% | -18 | Arbovirus anti repeat=-1
CCOC(=O)C1=C(COC(=O)c2ccccc2OC(F)F)NC(=O)NC1C (centres undefined) | 0.0 | / | 2 | / | /
O=C1NC(=S)N(c2ccc(Br)cc2)C(=O)/C1=C/N1CCN(C(=O)c2ccco2)CC1 | -1.5 | 12 | -2 | -5% | /
c1ccc(Nc2nc(NCCN3CCOCC3)nc(Nc3ccccc3)n2)cc1 | 0.3 | / | 1 | / | /
CNc1nc(-c2ccc3c(c2)CCN3C(=O)c2cccc(F)c2)cs1 | -0.3 | / | 91 | 69% | /
Cc1ccc(C(C)C)c(OCC(=O)NC2CCN(C)CC2)c1 | -0.5 | / | -17 | / | /
N#Cc1c(N)nc2c(c1-c1ccc(F)cc1)c(=O)nc1sccn12 | -4.5 | -3 | -8 | -6% | /
COc1ccc(N(CC(=O)NCCC2=CCCCC2)S(=O)(=O)c2ccccc2F)cc1 | 0.9 | / | -2 | -3% | /
COc1ccc(C(=O)OCC(=O)Nc2cc(C)on2)c(OC)c1OC | -2.3 | 3 | -15 | 1% | /
CCCOc1ccc(C(C)=O)cc1CC(C(N)=O)C(N)=O | -2.0 | 0 | -2 | / | -29
N/C(=N\OC(=O)COc1ccccc1)c1ccncc1 | 2.5 | / | -7 | 7% | /

3 entries out of the list, ordered by formula weight, ascending.
SMILES | RecA intein inh | Arbovirus anti | Mtb betalactam | Mtb H37Rv | YopH PTP inh | others
COc1ccc(N=Nc2cc(C)ccc2O)cc1 | 3.6 | / | 26 | 0% | /
C=CCOc1ccc(/C=N/NC(=O)C(C)Sc2ccccn2)cc1OCC (centres undefined) | 0.2 | -9 | 8 | 0% | -28
O=C(NCC1CCCC(CNC(=O)N2CCc3ccccc32)C1)N1CCc2ccccc21 (centres undefined) | 2.4 | -17 | 19 | 12% | -17

Not a retest: an excerpt of the list.
SMILES | RecA intein inh | Arbovirus anti | Mtb betalactam | Mtb H37Rv | YopH PTP inh | others
COc1ccc(N(CC(=O)NCCC2=CCCCC2)S(=O)(=O)c2ccccc2F)cc1 | 0.9 | / | -2 | -3% | /
COc1ccc(C(=O)OCC(=O)Nc2cc(C)on2)c(OC)c1OC | -2.3 | 3 | -15 | 1% | /
CCCOc1ccc(C(C)=O)cc1CC(C(N)=O)C(N)=O | -2.0 | 0 | -2 | / | -29
N/C(=N\OC(=O)COc1ccccc1)c1ccncc1 | 2.5 | / | -7 | 7% | /

(further entries)
SMILES | RecA intein inh | Arbovirus anti | Mtb betalactam | Mtb H37Rv | YopH PTP inh | others
CN(C)P(=S)(Nc1ccccc1)C(Cl)(Cl)Cl (centres undefined) | 1.6 | 22 | 3 | 4% | /
COc1ccc(C(CNC(=O)CSc2ccc(Br)cc2C)N2CCOCC2)cc1 (centres undefined) | 1.6 | / | -9 | / | /
O=c1cc[nH]c2ccc(Cl)cc12 | -2.4 | 6 | -13 | 0% | -23
Cc1c(C(=O)NC(=S)Nc2ccc(NC(=O)c3cccs3)cc2)cccc1[N+](=O)[O-] | -1.2 | / | -2 | 9% | -30
Cc1ccc(C(C)NC(=O)c2ccncc2)cc1C (centres undefined) | 2.8 | / | -11 | / | /
COC(=O)c1ccccc1NC(=O)N1CCN(c2ccc(OC)cc2)CC1 | -1.8 | 3 | 2 | 0% | /
CN(C)S(=O)(=O)c1ccc(C(=O)N2CCN=C2SCc2ccccc2)cc1 | -1.0 | -3 | 8 | 5% | /
COc1ccc(-c2cn[nH]c2C)cc1 | 1.1 | / | 70 | -6% | /
COc1ccc(NC(=O)C2CCCN2C(=O)Oc2ccccc2)cc1 (centres undefined) | 2.2 | 5 | -1 | -6% | /
COc1ccc2c(c1)SC1=NCCS(=O)(=O)N12 | -5.1 | 5 | 8 | -4% | -47 | Arbovirus anti repeat=-1
CCN(CC)S(=O)(=O)c1ccc(Cl)nc1 | -0.1 | -1 | -10 | 8% | /
COc1ccc(C(=O)N2CCN(C3CCN(Cc4ccccc4)CC3)CC2)cc1OC | -1.8 | 0 | -20 | / | -13
CC(=O)Nc1cccc(C(=O)OC2CCOC2=O)c1 (centres undefined) | -2.2 | / | -2 | / | /
COc1cc(/C=N/NC(=O)/C(=C\c2ccc3c(c2)OCO3)NC(=O)c2ccccc2)ccc1O | -1.0 | -15 | 8 | -1% | -9
COc1ccc(-c2ccc(OC)c([C@H]3[C@@H]4C=CCC[C@@]4(C)C(=O)N3Cc3ccccc3)c2)cc1OC | 8.7 | / | 95 | 10% | /
Nn1c(Nc2ccc(Cl)cc2)nncc1=O | -1.9 | -2 | -5 | -6% | /
